HTT prom inh: inhibitors of huntingtin promoter activity; HEK293 HTT promoter firefly luciferase reporter (activity 0% = vehicle and -100% = no light), 24 h; Potency, µM (top dose mostly 57.5 µM), for inactives: at the top dose activity change, negative = inhibition, hits mostly inhibitors; 0.93% of 48,000 active; AID 1508623; active means well fitted inhibition curve with a large enough effect; inconclusive means small, poorly fitted or top-dose-only effect; inactive means no such curve, though single readings can be large or run the other way; further: nearly all actives have a fitted effect of over 50% in size
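HEK293 luciferase promoter-reporter cells (2,500/well) plated 24 h, then compounds added at up to 57.5 uM final for 24 h at 37 °C. Firefly luminescence by Dual-Glo, normalized to vehicle (0%) and zero RLU (-100%).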
PMP22 txn prim: PMP22 gene transcription modulation | S16 Pmp22-F2sN Schwann cells (luciferase reporters placed in the Pmp22 gene), FLuc/NLuc coincidence luminescence, 24 h | 2% of 43,000 active | Potency, µM (titrated, usually from 57.5 µM), inactives show at the top dose activity change, negative = inhibition, actives largely listed as inhibitors | AID 1508649; active = clear falling dose curves in both reporters; inconclusive = both reporters move, but less clearly or upward; inactive = either reporter flat; the % is the NLuc reporter signal; further: on the % scale 0 is the no-effect control and ±100 the full control effect; some results filed as inactive show a strong effect at the top dose
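Rat S16 Pmp22-F2sN cells, 500-1,000/well in phenol red-free DMEM + 10% FBS, compound-treated 24 h (37C, 5% CO2). Luminescence: FLuc read, Stop&Glo added, NLuc read.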
Numbers without * were called inactive; ? = inconclusive; nt = not tested or not shown; & = joins results of further samples; [ ] = another dose, or the depositor's remark. Potency means the concentration at half of the fitted maximal effect. Outcome played no part in choosing rows; about 2.4% have a hit in one of these screens.

molecule	HTT prom inh	PMP22 txn prim
O=C(O)C1=CO[C@@H](O[C@@H]2O[C@H](CO)[C@H](O)[C@H](O)[C@H]2O)[C@@H]2C(CO)=CC[C@H]12	16%	nt
COC(=O)c1c(-c2cccs2)csc1NC(=O)COc1ccc(C(C)(C)C)cc1	-18%	9%
CC(C)Cn1c(=O)c2ccccc2n2c(CCC(=O)Nc3ccc(F)cc3)nnc12	-14%	-16%
CCc1ccc(N(CC)C(=O)Cn2cnc3sc(C)c(S(=O)(=O)N4CCN(c5ncccn5)CC4)c3c2=O)cc1	-8%	-9%
Cc1ccc(C(=O)NCc2ccc(N(C)C)cc2)cc1NC(=O)c1nsc2ccccc12	-18%	-78%
O=C(NCC(c1cccs1)S(=O)(=O)c1cccs1)c1cccc(F)c1 (stereo not drawn)	-26%	1%
COc1cc(OC)c(NC(=O)Cc2ccc(-n3c(C)nc4cccnc43)cc2)cc1Cl	?	?
CCOC(=O)Cn1c(=O)cc(C(F)(F)C(F)(F)F)c2c(C)nn(CC)c21	-18%	0%
COc1ccc(CCNC(=O)Cn2c(=O)c3cccn3c3ccc(F)cc32)c(OC)c1	-5%	-9%
Cc1ccc(S(=O)(=O)c2nnn3c2nc(NC(C)C)c2sccc23)cc1	-27%	?
COc1ccccc1CNC(=O)CCn1c(=O)c2ccccc2n(CC(=O)Nc2cc(Cl)ccc2C)c1=O	-11%	?
CCOC(=O)c1ccc(NC(=O)C2CCN(S(=O)(=O)c3ccc4c(c3)CCCC(=O)N4)CC2)cc1	?	-19%
CCOC(=O)c1ccc(NC(=O)C2=C(C)Nc3nc(CCCO)nn3C2c2ccc(OC)cc2)cc1 (stereo not drawn)	-17%	12%
COc1ccc(C(=O)Nc2ccc3c(c2)CCCN3S(=O)(=O)c2ccc(C)cc2)c(OC)c1	8%	-24%
Cc1cccc(N2CCN(CCCNC(=O)c3nnc(Cc4c(F)cccc4Cl)o3)CC2C)c1 (stereo not drawn)	?	-12%
Oc1cccc2[nH]ccc12	16%	nt
CCC1=Nc2cc(C(=O)NCCCOC(C)C)ccc2Sc2ccc(C)cc21	?	8.5µM*
CCC(C)NC(=O)Cn1c(=O)n(Cc2ccc(C(=O)NCCCOC)cc2)c(=O)c2ccccc21 (stereo not drawn)	-6%	-5%
COc1ccc(CCNC(=O)c2c(C)oc3nc(C)nc(N4CCOCC4)c23)cc1OC	2%	18%
O=C(CN1C(=O)CCc2cc(S(=O)(=O)N3CCOCC3)ccc21)NCc1ccccc1Cl	-3%	?
Cc1ccc2occ(CC(=O)N(Cc3ccc(C(C)C)cc3)C3CCS(=O)(=O)C3)c2c1 (stereo not drawn)	-26%	?
O=c1c(N2CCN(c3cccc(C(F)(F)F)c3)CC2)csc2ccccc12	-18%	?
O=C(Nc1ccc2nc3n(c(=O)c2c1)CCCCC3)C(=O)Nc1ccccc1F	9%	-24%
COc1ccc(CNC(=O)CCCn2nc(C)n3c(cc4sccc43)c2=O)cc1	-8%	-8%

Reformatted: three of the compounds above
Each structure is followed by: HTT prom inh, PMP22 txn prim
O=c1c(N2CCN(c3cccc(C(F)(F)F)c3)CC2)csc2ccccc12
    -18%, ?
O=C(Nc1ccc2nc3n(c(=O)c2c1)CCCCC3)C(=O)Nc1ccccc1F
    9%, -24%
COc1ccc(CNC(=O)CCCn2nc(C)n3c(cc4sccc43)c2=O)cc1
    -8%, -8%

Following part:
molecule	HTT prom inh	PMP22 txn prim
CCOC(=O)CSc1nc2c([nH]c3ccccc32)c(=O)n1-c1ccc(OC)cc1	-5%	?
O=C(Nc1cc(Cl)ccc1Cl)c1cc(S(=O)(=O)N2CCc3ccccc3C2)ccc1F	-17%	?
COc1ccc(-c2nsc(NC(=O)C(C)Oc3ccc(Cl)c(C)c3)n2)cc1 (stereo not drawn)	-8%	0%
CCCSc1nnc2n(-c3cccc(C)c3)c(=O)c3c4c(sc3n12)CCCC4	-3%	?
CCOC(=O)c1cc(-c2ccccc2)n(CC(=O)N(C)c2ccc(OC)cc2)c1C	-20%	?
COc1ccc(C2C=C(c3ccccc3)Nc3nc(NC(=O)/C=C/c4ccccc4)nn32)cc1 (stereo not drawn)	-20%	?
CCOC(=O)c1c(S(=O)(=O)N2CCC(C(=O)NCc3ccccc3Cl)CC2)c(C)n(C)c1C	-7%	-9%
Cc1cc(C)c2c(CC(=O)Nc3ccc(S(=O)(=O)N4CCCCC4)cc3)coc2c1	?	-29%
O=C(Cn1cc(SCc2c(F)cccc2Cl)c2ccccc21)N1CCCCC1	27%	-28%
Cc1cc(C)cc(-n2ccn(CC(=O)Nc3cc(C)ccc3C)c(=O)c2=O)c1	-13%	0%
COc1ccc(CN(C(=O)Nc2cc(C)ccc2C)C2CCN(C(C)=O)CC2)cc1	-6%	2%
Cc1oc2ncnc(N3CCOCC3)c2c1C(=O)NCc1ccccc1	-8%	-2%
CCC(C(=O)NCc1ccc(OC)c(OC)c1)n1nc(C)c2c(C)n(-c3ccc(C)cc3)nc2c1=O (stereo not drawn)	?	?
Cc1cccc(-n2nnc(-c3nc(-c4ccccc4)no3)c2N)c1C	69%[activator]	2%
COC(=O)c1ccccc1NC(=O)CSc1nc2ccccc2nc1Cc1ccccc1OC	1%	-41%
CCOC(=O)N1CCc2c(sc3c2C(=O)NC(c2cc(OC)c(O)c(OC)c2)N3)C1 (stereo not drawn)	-6%	-24%

Compound profiles (already shown). Order of screens: HTT prom inh	PMP22 txn prim
COC(=O)c1c(-c2cccs2)csc1NC(=O)COc1ccc(C(C)(C)C)cc1 is entered as -18%	9%
Cc1cc(C)c2c(CC(=O)Nc3ccc(S(=O)(=O)N4CCCCC4)cc3)coc2c1 is entered as ?	-29%

Continued.
molecule	HTT prom inh	PMP22 txn prim
Cc1ccc(CCNC(=O)CS(=O)Cc2nc(-c3ccccc3Cl)oc2C)cc1 (stereo not drawn)	-8%	-18%
CCOc1ccc(CNC(=O)C2CCN(S(=O)(=O)c3cn(C)cn3)CC2)cc1OC	-17%	4%
CCOC(=O)c1ccc(N2C(=O)c3[nH]nc(-c4ccc(OC)cc4)c3C2c2ccc(C)cc2)cc1 (stereo not drawn)	?	?
COC(=O)c1scc(-c2ccccc2)c1S(=O)(=O)Nc1ccc(C)c(Cl)c1	?	?
Cc1cccc(OCC(=O)NCC2(N3CCN(C)CC3)CCCCC2)c1	-7%	-37%
O=C(CSc1nnc(-c2ccc(Cl)cc2)o1)N1CCc2ccccc21	3%	7%
CCc1cccc(NC(=O)c2cc3c(=O)[nH]c4ccccc4c3n2C)c1	2%	4%
CCSc1oc(-c2cccs2)nc1S(=O)(=O)c1ccc(Br)cc1	?	?
COc1ccc(CCNC(=O)CCc2cn(Cc3ccc(C)cc3)c3ccccc23)c(OC)c1OC	?	-24%
CC(=O)N1CCc2cc(CNS(=O)(=O)c3ccc(Cl)s3)ccc21	1%	-16%
Cc1ccc(NC(=O)CN(C)S(=O)(=O)c2ccc3nc(C)sc3c2)c(C)c1	-27%	-5%
COc1ccccc1Cn1c(C2CC(=O)N(c3ccccc3OC)C2)nc2ccccc21 (stereo not drawn)	?	?
COc1ccc(N2CCN(CCCNC(=O)c3cnn(-c4ccc(F)cc4)c3-n3cccc3)CC2)cc1	?	?
CCc1ccc(C(=O)c2cn(CC(=O)Nc3ccc(F)cc3)c3ccc(OC)cc3c2=O)cc1	-9%	?
Cc1cccc(NC(=O)CSc2nc3ccccc3nc2N2CCOCC2)c1C	-4%	3%
Cc1ccc(CNC(=O)CCc2nnc3n(C)c(=O)c4sccc4n23)cc1	-17%	-9%
COc1ccc(N2CCN(C(=O)C3CCN(S(=O)(=O)c4cccc5nonc45)CC3)CC2)cc1	-27%	-5%
Cc1cccc(-c2nc3c(cnn3-c3ccccc3)c(=O)n2-c2ccc(Cl)cc2)c1	-9%[11.5 µM]	-128%
CCOC(=O)c1c(C)[nH]c(C)c1S(=O)(=O)N1CCCC(C(=O)Nc2ccc(OC)c(Cl)c2)C1 (stereo not drawn)	-15%	-19%
Cc1cc(-n2c(C)nc3ccccc3c2=O)ccc1NC(=O)c1cccc([N+](=O)[O-])c1	2%	?
CC(C)(Sc1cc(C(C)(C)C)c(O)c(C(C)(C)C)c1)Sc1cc(C(C)(C)C)c(O)c(C(C)(C)C)c1	-7%&9%	nt
COc1ccc(CCNC(=O)CCc2c(C)nc3c(c(C)nn3-c3ccccc3)c2C)c(OC)c1	0%	-3%
Cc1cc(C)c2oc(C(=O)Nc3ccc(S(=O)(=O)N4CCC(C)CC4)cc3)cc(=O)c2c1	1%	-9%
Cc1ccc(C)c(N2CCN(c3nc4ccccc4n4c(C)nnc34)CC2)c1	-7%	-22%
CCC(=O)N1c2ccccc2CC1C(=O)N1CCN(c2cccc(OC)c2)CC1 (stereo not drawn)	-5%	10%
COc1ccccc1CNC(=O)CN1C(=O)CSc2ccc(S(=O)(=O)N3CCCC3)cc21	-8%	1%
CC1=C(C(=O)Nc2cccnc2)C(c2ccccc2)n2nc(-c3ccc(O)cc3)nc2N1 (stereo not drawn)	4%	13%
COc1ccc(C(=O)c2oc3ccccc3c2NC(=O)COc2cccc(C)c2)cc1	-11%	?
COc1ccc(-c2nc(C)c(CCNC(=O)c3cccs3)s2)cc1OC	19%	-24%
Cc1ccccc1CNC(=O)c1ccc(-c2nc(CS(=O)(=O)c3ccccc3)c(C)o2)cc1	?	-14%
CCc1nnc(NC(=O)c2nc(S(C)(=O)=O)ncc2Cl)s1	?	9.5µM*
Cc1cccc(OCC(=O)NCc2ccc3c(c2)CCN3C(=O)c2ccccc2)c1	-15%	-12%
CCC(=O)N1CCc2cc(CNS(=O)(=O)c3ccc(CC(C)C)cc3)ccc21	?	?
COc1cccc(C(=O)c2cn(CC(=O)Nc3cc(Cl)c(OC)cc3OC)c3nc(C)ccc3c2=O)c1	-10%	?
CN1CCc2nc3sc(C(=O)c4ccc(F)cc4)c(N)c3cc2C1	14%	-22%
COc1ccc(NC(=O)CSc2nnc(NC(=O)Nc3ccc(OC)cc3)s2)cc1	39%[activator]	14%
NC(=O)NC1NC(=O)NC1=O (stereo not drawn)	9%	nt
COc1cccc(CNC(=O)CSc2nnc(C)c3c(C)n(-c4ccccc4)nc23)c1OC	-4%	?
CCc1ccc(NS(=O)(=O)c2c(C)nc3sc(CC)nn3c2=O)cc1	?	?
CN(C)CCNc1ncnc2c1cnn2-c1cccc(Cl)c1	-2%	?
CC1=C(C/C=C(\C)CCC[C@H](C)CCC[C@H](C)CCCC(C)C)C(=O)c2ccccc2C1=O	14%	nt
Cn1nc(C(=O)NCc2ccccc2Cl)c2c1-c1ccccc1SC2	-6%	-4%
Cc1ccc2c(c1)c(=O)c(S(=O)(=O)c1ccc(F)cc1)cn2CC(=O)Nc1ccc2c(c1)OCO2	-25%	-26%
COc1cccc2cc(-c3nnc(Nc4c(F)cccc4F)s3)c(=O)oc12	79%[activator]	5%
COc1cc(NS(=O)(=O)c2ccc3[nH]c4c(c3c2)CCCC4)cc(OC)c1OC	?	12µM*
O=C(CCS(=O)(=O)c1nc(-c2ccc3c(c2)OCO3)cc(C(F)(F)F)n1)Nc1ccccc1F	6%	?
COc1cc(NC(=O)NCCN2CCN(c3ccccc3)CC2)cc(OC)c1OC	-16%	?
Cc1cccc(N(C)C(=O)CSc2nc3ncccc3o2)c1	-3%	-9%
COc1ccc(-c2cc(C(F)(F)F)nc(SCC(=O)NCCc3ccc(OC)c(OC)c3)n2)cc1	-5%	-15%
O=C(Nc1ccc(F)cc1)Nc1ccc2snnc2c1	?	?
CC(=O)N1CCc2cc(Br)cc(S(=O)(=O)N3CCC(C)CC3)c21	-13%	-26%
COc1ccc(C(=O)CC2(O)C(=O)Nc3c(Cl)ccc(Cl)c32)cc1 (stereo not drawn)	?	nt
O=C1CC(c2c(F)cccc2Cl)c2c(ccc3ccccc23)N1 (stereo not drawn)	?	?
COc1ccc(-c2c(C)c3ccc(O)c(CN4CCOCC4)c3oc2=O)cc1OC	-22%	11%
O=C(O)c1ccc(Cn2c(SCc3ccc(F)cc3)nc3ccncc32)cc1	5%	4%
Cc1cccc(N2CCN(C(=O)c3cnn(-c4ccccc4)c3C3CCN(C(=O)OC(C)(C)C)CC3)CC2)c1C	2%	?
O=C(NCCc1csc(-c2ccc(F)cc2)n1)c1ccc(Br)o1	?	?

Screening data (PubChem)
